B2AR ag – human beta-2 adrenergic receptor agonism by FAP. Am2.2-beta2AR cells, FAP receptor internalization, flow cytometry; reference of the scale not given here. response, % (no concentration beside the values). hit rate 0.43% among 340,000. AID 504454;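 active means response above a set limit, near 3 SD of response in nonfluorescent compounds, cut at about 42% in these data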;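 further: stock transfer was 100 nL into about 11 µL; a reference agonist was the positive control; negative values mostly stem from fluorescent compounds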
UCH37 DUB inh – blocks the human deubiquitinase UCH37 | Q9Y5K5 | purified proteasome/UCH37, Ub-AMC cleavage fluorescence | inhibition, % (concentration not given with the values) | hit rate 0.33% among 330,000 | AID 588478;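 active means mean of two replicates above 20%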;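 further: 0% = compound-free wells with enzyme and 100% = wells lacking proteasome; stock transfer was 100 nL into about 20 µL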
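Material: Human UCH37 enzyme supplied as purified proteasome complex | Schedule: 30 min compound-proteasome preincubation then 25 min substrate reaction, room temperature | Detection: AMC fluorescence from Ub-AMC cleavage, excitation 355 nm, emission 460 nm | Benchmarks: Wells without proteasome as full block, compound-free enzyme plus substrate as uninhibited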
A1 inh – inhibitors of the anti-apoptotic protein A1, read as caspase activation; MEF A1-2A-BIM cells, Caspase-Glo 3/7 luminescence, 3 h; percent of clofoctol response, vehicle zero; caspase activation, % (no concentration beside the values); hit rate 0.066% among 330,000; AID 2462;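 active means over half of replicate activation scores above 10%, or exactly half above 10 with the replicate mean above 10; inconclusive means replicate mean below 10 yet half the replicates above 10; inactive means over half of replicates below 10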;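 further: wells of about 30 µL received 50 nL stock; many hits fall short of the cut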
Calb FLC – C. albicans growth modulation with fluconazole; hit rate 0.57% among 300,000; growth inhibition, % (test concentration not listed); AID 1979; C. albicans CaCi-2 (fluconazole-resistant clinical isolate) + fluconazole, Alamar Blue growth, 48 h;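 active means most replicates above 75%; inconclusive means exactly half above 75%; inactive means most below 75%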;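 further: all wells also contain fluconazole at 8 µg/ml as a sub-toxic cotreatment; 0% = median of DMSO wells and 100% = median of geldanamycin control wells; wells of about 8 µL received 7.5 nL stock; the first replicate is given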
T cruzi inh – T. cruzi replication inhibition | inhibition, % (no concentration beside the values) | T. cruzi beta-gal in NIH3T3, luminescence, 90 h | AID 1885 | hit rate 1.4% among 300,000;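 active means mean inhibition across valid replicates above about 55%, limit read from the data; inconclusive means mean below that limit but half or more replicates reach it; inactive means mean below it, under half of replicates reach it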;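 further: signal also drops with host cell toxicity which is not excluded here; 0% = plate median of DMSO wells and 100% = zero luminescence signal; higher percent means less beta-gal luminescence so fewer parasites; stock transfer was 50 nL into about 50 µL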
Beta cell apopt – blocks beta cell apoptosis. INS-1E cytokine-induced death, ATP luminescence, 48 h; percent of positive-control rescue, neutral wells zero. protection from apoptosis, % (concentration not given with the values). hit rate 0.8% among 300,000;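 active means all replicates at 75% or more, or half of them and the mean; inconclusive means half reach 75% but not the mean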;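 further: 0% = cytokine-treated negative control wells and 100% = positive control rescue; higher means more ATP so stronger rescue from cytokine killing; wells of about 40 µL received 100 nL stock; the first replicate is given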
LANA-H2B inh – blocks KSHV LANA binding to histone H2A/H2B; Q9QR71; cell-free LANA-H2A/H2B peptide, fluorescence polarization; inhibition, % (test concentration not listed); hit rate 0.6% among 320,000; in the data active means inhibition mostly above about 10%, no sharp cut-off; inactive means mostly below about 6.7%;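 further: stock transfer was 7.5 nL into about 10 µL; 0% = median of vehicle wells and 100% = median of positive control wells; one replicate is shown; the record names a cut of 25% in any replicate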
Target sequence (Q9QR71 whole entry, looked up): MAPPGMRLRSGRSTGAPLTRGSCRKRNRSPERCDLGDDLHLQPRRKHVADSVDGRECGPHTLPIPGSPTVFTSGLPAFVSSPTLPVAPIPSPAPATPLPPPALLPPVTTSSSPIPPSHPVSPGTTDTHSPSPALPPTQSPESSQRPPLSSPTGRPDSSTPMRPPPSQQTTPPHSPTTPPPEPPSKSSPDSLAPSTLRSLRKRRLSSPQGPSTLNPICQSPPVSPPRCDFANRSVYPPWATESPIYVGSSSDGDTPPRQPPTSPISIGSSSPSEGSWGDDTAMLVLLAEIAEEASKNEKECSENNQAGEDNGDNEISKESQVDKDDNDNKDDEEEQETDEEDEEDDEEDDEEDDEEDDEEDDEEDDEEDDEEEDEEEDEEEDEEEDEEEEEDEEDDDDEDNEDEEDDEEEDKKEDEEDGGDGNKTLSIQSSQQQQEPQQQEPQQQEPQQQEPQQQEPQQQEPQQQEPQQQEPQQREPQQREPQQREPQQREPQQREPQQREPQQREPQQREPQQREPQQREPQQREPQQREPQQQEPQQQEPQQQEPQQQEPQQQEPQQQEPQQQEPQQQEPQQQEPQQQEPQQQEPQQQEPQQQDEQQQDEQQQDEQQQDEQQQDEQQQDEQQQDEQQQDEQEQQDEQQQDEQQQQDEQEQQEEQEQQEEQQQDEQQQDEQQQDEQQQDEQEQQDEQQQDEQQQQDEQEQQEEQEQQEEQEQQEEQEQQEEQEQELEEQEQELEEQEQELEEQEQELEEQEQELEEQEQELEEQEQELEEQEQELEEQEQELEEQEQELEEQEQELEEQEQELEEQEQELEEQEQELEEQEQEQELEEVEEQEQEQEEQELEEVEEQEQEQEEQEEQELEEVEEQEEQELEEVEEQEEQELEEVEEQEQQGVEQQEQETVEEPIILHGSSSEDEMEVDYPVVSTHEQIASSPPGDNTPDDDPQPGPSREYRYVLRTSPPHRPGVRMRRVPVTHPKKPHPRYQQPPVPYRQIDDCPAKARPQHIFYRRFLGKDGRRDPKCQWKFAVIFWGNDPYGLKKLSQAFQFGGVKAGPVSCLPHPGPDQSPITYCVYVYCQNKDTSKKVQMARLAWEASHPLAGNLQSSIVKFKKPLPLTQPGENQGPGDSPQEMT
RanGTP-Impb inh – inhibitors of RanGTP-importin-beta interaction, primary screen, biochemical, FRET, CFP-Ran, YFP-importin-beta, homogeneous; cell-free CFP-Ran/YFP-importin-beta FRET ratio; inhibition, % (no concentration beside the values); hit rate 1.1% among 300,000;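 active means most replicates above 15%; inconclusive means exactly half above 15%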;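 further: 0% = DMSO wells and 100% = Ran loaded with GDP instead of GTP; wells of about 40 µL received 100 nL stock; the first replicate is given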
Starred values were filed as active, the others as inactive; i = inactive; ? = inconclusive; . = not tested or not shown. Rows were taken by chance; overall some 4.3% were active at least once.

SMILES | B2AR ag | UCH37 DUB inh | A1 inh | Calb FLC | T cruzi inh | Beta cell apopt | LANA-H2B inh | RanGTP-Impb inh
Cc1ccc(CSC2=NCCN2C(=O)c2ccc(S(=O)(=O)N(C)C)cc2)cc1 | -4 | 2.4 | 0.1 | -17 | -2 | 4 | -5.8 | -4.3
COc1ccccc1/C=C/CN1CCN(Cc2ccc(F)cc2)C(CCO)C1 (stereo not given) | -3 | 3.7 | 0.2 | -3 | 11 | -4 | 1.2 | 2.7
CCOC(=O)C1=C(C)Nc2ccccc2N=C1NC(=O)c1cc(C)on1 | 7 | -0.1 | -0.4 | . | . | -4 | 4.4 | .
Cc1cccc(N2C(S)=C(C#N)C(=O)NC2c2cccs2)c1 (stereo not given) | 2 | 6.8 | -0.2 | . | . | -3 | i | .
Fc1cccc(Nc2ncnc3sccc23)c1 | -7 | . | -1.0 | -39 | -2 | -5 | 7.5 | 12
Cc1nnc(SCC(=O)Nc2cc(S(=O)(=O)N3CCCC3)ccc2Cl)n1C1CC1 | 1 | -0.5 | 1.1 | . | . | -4 | 4.0 | .
Cc1cc(S(=O)(=O)N2CCCCC2)ccc1OCC(=O)N1CCCC1 | -2 | 2.1 | 0.1 | 17 | -5 | -2 | -5.3 | 8.8
CCOC(=O)c1nnn(-c2nonc2N)c1CNC(C)C | -3 | 1.1 | 0.5 | -2 | -9 | -4 | 1.3 | 3.7
COc1ccc2c(c1)c(CC(=O)Nc1cc(C)ccc1C)c(C)n2C(=O)c1ccc(Cl)cc1 | -5 | 3.7 | -1.2 | 1 | 60* | 4 | 8.2 | 8.8
CC(C)CC(N=C1NC(C)(C)Cc2ccccc21)C(=O)O (stereo not given) | -1 | 0.2 | 1.1 | -7 | -20 | -7 | -0.6 | 3.9
COCc1c(C(=O)N/N=C/c2ccco2)nnn1-c1nonc1N | -1 | . | 0.6 | 13 | 3 | -5 | 1.0 | 0.0
CC(C)C1C(C#N)=C(N)Oc2n[nH]c(C(C)(C)C)c21 (stereo not given) | -4 | 0.3 | 1.1 | . | . | . | -1.6 | .
CC(CCc1ccccc1)NC(=O)CCCCCNc1nc(=S)[nH]c2ccccc12 (stereo not given) | . | 4.6 | -0.2 | -5 | 18 | 6 | -2.9 | -2.5
O=C(Oc1cccc2cccnc12)c1ccc(Br)o1 | 1 | 2.2 | 1.8 | 3 | -21 | -11 | 2.1 | -3.6
O=C1C=Cc2ccccc2/C1=C/c1[nH]c(=O)[nH]c1O | -11 | . | -0.7 | 0 | -26 | 6 | -7.9 | -1.6
COC(=O)c1c(N(S(C)(=O)=O)S(C)(=O)=O)sc2c1CCN(c1ncc(C(F)(F)F)cc1Cl)C2 | 7 | 0.5 | 0.2 | 0 | -4 | 16 | -0.3 | 2.0
CCOC(=O)N1CCC(N2CCN(S(=O)(=O)c3ccc(NC(C)=O)cc3)CC2)CC1 | 6 | 1.1 | -0.3 | -6 | -20 | 3 | 0.4 | -3.5
O=C(NCc1ccccc1)N1CCC(CO)(CCc2ccccc2)CC1 | -3 | 2.3 | 0.5 | -4 | -17 | -1 | -7.5 | -1.6
Cc1cc(S(=O)(=O)N2CCOCC2)ccc1OCC(=O)NCCN1CCOCC1 | 1 | 0.5 | 0.0 | 1 | -2 | 4 | -1.6 | -1.5
COc1cc(-c2nc(CCNC(=O)c3ccco3)cs2)cc(OC)c1OC | 3 | -20 | 0.3 | 0 | -8 | 5 | 0.2 | -2.2
CCN1CCN(Cc2nc3c(c(=O)[nH]c(=O)n3C)n2Cc2ccccc2Cl)CC1 | -4 | 3.5 | -0.7 | 7 | -7 | -13 | 2.4 | -0.6
Cc1ccc(C(NC(=O)c2ccccc2)C(Cl)Cl)cc1 (stereo not given) | -6 | 1.2 | -0.1 | 27 | -3 | -3 | 1.5 | -0.8
CSC1=C(C#N)C(c2ccccc2Cl)C(C(=O)c2cccs2)C(O)(C(F)(F)F)N1 (stereo not given) | 5 | 2.8 | 0.6 | 36 | -30 | 3 | 0.1 | 0.9
COc1ccc(S(=O)(=O)Nc2ccc3c(c2)C(=O)N([C@H](C)CO)C[C@H](C)[C@@H](CN(C)C(=O)NC(C)C)O3)cc1 | -5 | 3.9 | 0.1 | . | . | 1 | 1.6 | .

Structures above that have a CF3 group, in the order listed:
SMILES | B2AR ag | UCH37 DUB inh | A1 inh | Calb FLC | T cruzi inh | Beta cell apopt | LANA-H2B inh | RanGTP-Impb inh
COC(=O)c1c(N(S(C)(=O)=O)S(C)(=O)=O)sc2c1CCN(c1ncc(C(F)(F)F)cc1Cl)C2 | 7 | 0.5 | 0.2 | 0 | -4 | 16 | -0.3 | 2.0
CSC1=C(C#N)C(c2ccccc2Cl)C(C(=O)c2cccs2)C(O)(C(F)(F)F)N1 (stereo not given) | 5 | 2.8 | 0.6 | 36 | -30 | 3 | 0.1 | 0.9

Additional entries:
SMILES | B2AR ag | UCH37 DUB inh | A1 inh | Calb FLC | T cruzi inh | Beta cell apopt | LANA-H2B inh | RanGTP-Impb inh
Cc1ccc(NCC(=O)N/N=C/c2ccc(-c3cccc(C(F)(F)F)c3)o2)cc1 | 4 | . | 1.0 | 8 | -6 | -7 | 3.1 | 1.6
O=C(COC(=O)c1cc2ccccc2oc1=O)Nc1ccc(F)cc1F | 3 | -9.3 | 0.1 | -2 | -15 | -4 | -0.7 | -2.0
Cc1ccc(-c2nn(-c3ccc(F)cc3)cc2C(=O)NCC(c2cccs2)N2CCOCC2)cc1 (stereo not given) | 11 | -0.6 | 0.4 | 5 | 27 | 5 | -0.3 | 3.3
CCOc1ccc(NC(=O)c2cccc(-n3cccc3)c2)cc1S(=O)(=O)N1CCOCC1 | -10 | . | -0.3 | . | . | 3 | -3.1 | .
CCCC(=O)c1ccc(N2CCN(C(=O)OCC)CC2)c(F)c1 | 0 | 2.1 | -0.5 | -8 | 3 | -4 | 0.7 | 0.3
CCc1ccc(OCC(=O)NNC(=O)c2ccc(NC(=O)C3CC3)cc2)cc1 | 2 | 3.5 | -0.9 | -2 | 2 | -5 | 0.0 | -0.9
CNS(=O)(=O)c1cc(NC(=O)CCNC(=O)c2ccco2)ccc1C | -5 | 2.9 | 0.8 | 8 | 9 | 0 | 5.2 | -13
CC1CCN(S(=O)(=O)c2cc(C(=O)N3CCN(c4ncccn4)CC3)ccc2Br)CC1 | -12 | -2.0 | 1.2 | 23 | 13 | -2 | 4.3 | 6.2
Cn1c(=O)c2c(nc(NN=C3CCCC3)n2C)n(C)c1=O | -5 | 0.9 | -0.2 | 4 | -2 | 12 | -8.5 | 0.2
Cc1ccc(C(=O)O)cc1NC(=S)NCCc1ccccc1 | 0 | 0.8 | 0.3 | -4 | -3 | -4 | -2.3 | -1.8
Cc1cc(C)c[n+](C[n+]2cc(C)cc(C)c2)c1 | -4 | -0.7 | 2.9 | -4 | -16 | 2 | 0.2 | -3.3
COc1ccccc1C(=O)Nc1ccc2[nH]ncc2c1 | -8 | 1.3 | -0.8 | 5 | -21 | . | 7.1 | 1.9
O=c1c2nnn(-c3ccc(Cl)cc3)c2ncn1Cc1ccccn1 | -4 | -1.5 | 1.5 | -23 | 0 | -2 | -2.9 | 0.4
Cn1nc(C(F)(F)F)c(-c2ccccc2)c1NC(=O)c1cccnc1 | -8 | 1.5 | 0.6 | -2 | . | -14 | -1.2 | 0.0
CCOC(=O)N1CCN(C(=O)c2cc(OC)c(OC)c(OC)c2)CC1 | -3 | 2.8 | 0.2 | -7 | -8 | -4 | -7.9 | 2.4
Cn1c(=O)c2c(nc(CN3CCc4ccccc4C3)n2Cc2ccc(F)cc2)n(C)c1=O | 4 | . | -0.6 | -12 | 12 | 3 | -1.1 | -0.1
Cc1ccccc1OCCOCCN1CCCCCC1 | -7 | 0.9 | -0.1 | -14 | 52 | 2 | 12 | 6.2
Cc1cccc(Nc2nc(N3CCCC3)nc(N3CCCC3)n2)c1 | 0 | 1.6 | 0.2 | -31 | 20 | 16 | 1.2 | 0.0
C[C@@H]1O[C@@H](OC[C@@H]2O[C@H](Oc3c(-c4ccc(O)cc4)oc4cc(O)cc(O)c4c3=O)[C@@H](O)[C@H](O)[C@H]2O)[C@H](O)[C@H](O)[C@H]1O | -5 | 3.8 | 1.7 | . | . | -2 | -0.6 | .
COc1ccc(/C(=N\O)c2ncc(C(F)(F)F)cc2Cl)cc1 | 0 | . | -1.8 | 3 | -3 | -8 | 4.6 | ?
O=[N+]([O-])c1cc(Br)c(OCc2nnc(-c3ccccc3)o2)c(Br)c1 | -14 | 6.0 | -0.3 | 6 | 67* | -4 | -2.3 | -0.3
CCOc1ccc(C(=O)NCc2ccncc2)cc1 | -2 | 2.7 | 0.8 | -3 | -4 | -6 | -1.0 | 2.2
CSc1nc(-c2ccc(Cl)cc2)c(C#N)c(=O)n1C | 0 | -41 | 0.5 | -28 | 4 | -9 | -1.7 | 0.0
CCOC(=O)C1CCN(C(=O)C(CC)c2ccccc2)CC1 (stereo not given) | -1 | 2.3 | -0.1 | 20 | -25 | -6 | 0.9 | 4.9
CC1CCCC(C)N1C(=O)CSc1nnc(CSc2ncccn2)n1C (stereo not given) | -6 | -0.7 | -0.3 | -7 | . | -3 | 3.4 | -1.5
CCCCn1c(SCC(=O)Nc2cc(C)on2)nc2c1c(=O)n(C)c(=O)n2C | 1 | -3.5 | -1.0 | 17 | -3 | -5 | -1.6 | 0.0
CCOC(=O)C1C(=O)C=C(/C=C/c2ccc(N(C)C)cc2)CC1c1ccccc1 (stereo not given) | -677 | 2.5 | -0.5 | -18 | 7 | 1 | -8.9 | -38
COc1cccc(Cn2c(NCC(C)C)nc3c2c(=O)n(C)c(=O)n3C)c1 | 1 | 5.7 | -1.3 | 2 | 10 | -3 | -0.4 | ?
O=C(Nc1ccccc1N1CCN(C(=O)c2ccc(Cl)cc2)CC1)c1cc(Br)ccc1Cl | 19 | 3.4 | ? | 7 | 47 | 10 | 1.6 | ?
N#Cc1c(-c2ccc(Cl)cc2)c2c([nH]c1=S)CCCC2 | -4 | 3.3 | -0.5 | -21 | 3 | -3 | -1.0 | -0.8
CCC(C)N(C(=O)c1csnn1)C(C(=O)NC1CCCC1)c1ccccc1F (stereo not given) | -1 | 2.2 | -0.3 | -2 | 5 | -5 | -1.7 | 4.6
O=C(CCNC(=O)C1CCN(S(=O)(=O)c2ccccc2)CC1)Nc1ccccc1 | 48* | 7.0 | 0.2 | -5 | -9 | . | -5.5 | 4.7

Fetched by structure from above (three):
SMILES | B2AR ag | UCH37 DUB inh | A1 inh | Calb FLC | T cruzi inh | Beta cell apopt | LANA-H2B inh | RanGTP-Impb inh
COc1cccc(Cn2c(NCC(C)C)nc3c2c(=O)n(C)c(=O)n3C)c1 | 1 | 5.7 | -1.3 | 2 | 10 | -3 | -0.4 | ?
O=C(Nc1ccccc1N1CCN(C(=O)c2ccc(Cl)cc2)CC1)c1cc(Br)ccc1Cl | 19 | 3.4 | ? | 7 | 47 | 10 | 1.6 | ?
O=C(CCNC(=O)C1CCN(S(=O)(=O)c2ccccc2)CC1)Nc1ccccc1 | 48* | 7.0 | 0.2 | -5 | -9 | . | -5.5 | 4.7

High-throughput results from PubChem.
